Compound activity: PubChem BioAssay, National Center for Advancing Translational Sciences (NCATS)
TRPML1 ag: human mucolipin-1 channel agonism; TRPML1-expressing cells, Ca2+ dye fluorescence, FDSS; host cell line not named in the record; reference of the full effect not given here; activation, % (no concentration beside the values); AID 624414; 410,000 compounds, 0.12% hits; in the data active = activation above about 50%; inconclusive = about 30% to 50%; inactive = below about 30%; further: 0% is about no effect; the text of the record puts the active cut at 80%
Target sequence (Q9GZU1 whole entry, looked up): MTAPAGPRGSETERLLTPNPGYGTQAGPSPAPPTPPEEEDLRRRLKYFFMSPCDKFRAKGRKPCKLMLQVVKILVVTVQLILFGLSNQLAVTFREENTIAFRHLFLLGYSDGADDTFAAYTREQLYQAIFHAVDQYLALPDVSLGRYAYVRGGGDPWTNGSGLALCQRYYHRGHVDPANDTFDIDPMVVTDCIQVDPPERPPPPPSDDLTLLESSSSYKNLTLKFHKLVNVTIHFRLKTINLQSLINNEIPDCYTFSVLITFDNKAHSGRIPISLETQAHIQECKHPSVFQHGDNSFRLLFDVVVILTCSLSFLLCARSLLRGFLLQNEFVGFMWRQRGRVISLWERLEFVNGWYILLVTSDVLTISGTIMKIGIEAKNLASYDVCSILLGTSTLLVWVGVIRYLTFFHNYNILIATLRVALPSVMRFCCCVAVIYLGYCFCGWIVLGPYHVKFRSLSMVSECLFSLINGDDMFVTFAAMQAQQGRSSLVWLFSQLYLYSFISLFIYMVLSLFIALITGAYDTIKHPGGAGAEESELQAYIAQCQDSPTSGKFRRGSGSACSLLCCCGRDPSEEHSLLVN
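Tetracycline-induced TRPML1-DL cells are seeded and incubated overnight before loading with a no-wash Ca2+ dye and quencher. Agonist activity is taken from the 110 s fluorescence read following compound pin-transfer on an FDSS, before EC80 54-4 challenge.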
ClpP mod: qHTS Assay for Activators of ClpP. ATP-dependent Clp protease proteolytic subunit (Bacillus subtilis (strain 168)), P80244. purified B. subtilis ClpP, FRET peptide cleavage, 20 min. Potency, µM (titrated, usually from 57.5 µM), inactives show at the top dose activity change, negative = active. 340,000 compounds, 1.9% hits; active = well fitted falling curve with a large enough effect; inconclusive = small, poorly fitted or top-dose-only effect; inactive = no such curve, though single readings can be large or run the other way; further: potency means the concentration at half of the fitted maximal effect; the source files actives as falling curves though it sought activators and does not explain the sign; nearly all actives have a fitted effect of over 65% in size; many hits overshoot -100%
Target sequence (P80244 whole entry, looked up): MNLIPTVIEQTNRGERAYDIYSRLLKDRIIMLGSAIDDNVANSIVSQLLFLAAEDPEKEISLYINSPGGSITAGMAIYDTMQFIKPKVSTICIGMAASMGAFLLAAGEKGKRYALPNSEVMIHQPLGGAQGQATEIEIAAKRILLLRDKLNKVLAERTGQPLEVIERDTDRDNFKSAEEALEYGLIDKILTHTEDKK
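Buffer: 100 mM Tris/HCl pH8, 100 mM KCl, 0.05% low protease BSA, 2.5% glycerol, 0.01% Tween-20. ClpP 10 microg/mL final; 20 min RT; delta FRET normalized to ADEP and DMSO controls.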
TRPML1 blocker: inhibitors of human TRPML1 channel; TRPML1-inducible cells, Ca2+ dye fluorescence, FDSS; active compounds read low; inhibition of EC80 agonist-evoked calcium signal; activity change, negative = inhibition, % (no concentration beside the values); 390,000 compounds, 0.02% hits; in the data active means activity change below about -50%; inconclusive means about -30% to -50%; inactive means above about -30%;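 further: stimulus is agonist 54-4 at its EC80 concentration; on the % scale 0 is the no-effect control and ±100 the full control effect; compound concentration not given in the record; the text of the record puts the active cut at -80%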
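TRPML1-DL cells, Tet-induced overnight (~16 h, 37 °C) at 1,500 cells/well, were loaded with Ca8 no-wash dye plus quencher for 45-90 min at room temperature. Compounds were pinned during FDSS kinetic reading; agonist 54-4 at EC80 (4 uM final) then added.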
PINK1 expr mod: modulators of PINK1 expression. 410,000 compounds, 0.2% hits. PINK1 immunofluorescence, high-content cytometry, 24 h. Potency, µM (doses to about 76.6 µM), inactives show top-dose activation (PINK1 increase), usual class: activators; active = well fitted activation curve with a large enough effect; inconclusive = small, poorly fitted or top-dose-only effect; inactive = flat fitted curve, though single readings scatter; cell line not stated here;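 further: potency means the concentration at half of the fitted maximal effect; % of control where 0% means no effect; nearly all actives have a fitted effect of over 65% in size; a mitochondrial uncoupler was the plate control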
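PINK1 protein level read as immunofluorescence by microplate cytometer in a fixed, stained stable cell line after 24 h exposure to five compound concentrations, with CCCP as control.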
Menin-MLL FL inh: displaces fluorescein MLL peptide from human menin. Fluorescence polarization, fluorescein-MLL peptide displacement from menin. FP activity change, % at 61.4 µM. 290,000 tested, under 10 active. AID 1766; inconclusive = falling polarisation curve, or a change in total fluorescence; inactive = total fluorescence flat and polarisation flat or rising; no compound was filed as active; the % refers to the polarisation; negative = inhibition;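 further: % of control where 0% means no effect; inhibitors lower the polarisation; unlabelled MLL peptide was the positive control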
TRPV1 potentiator: enhances activation of the human vanilloid receptor TRPV1. Q8NER1. TRPV1-expressing cells, Fluo-8 calcium influx, capsaicin EC20 potentiation; host cell line not named in the record; control for the full effect not named in the record. potentiation, % at 8.33 µM. 320,000 compounds, 0.02% hits. AID 540277; active means potentiation above 80%; inconclusive means 30% to 80%; inactive means below 30%; further: 0% is about no effect
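TRPV1-expressing cells were cultured overnight at 35.5C and loaded with Fluo-8 calcium dye for 40 to 90 min at room temperature. After a 10 s baseline, compound was added and calcium influx was read kinetically for 3 min (ex 480/em 520 nm).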
Sfp inh: inhibitors of Bacillus subtilis Sfp phosphopantetheinyl transferase; 310,000 compounds, 3.5% hits; Q9F4F7; AID 1490; Potency, µM, inactives show max response, negative = inhibition, most hits filed as inhibitors; Biochemical Sfp PPTase activity, qHTS; active means well fitted inhibition curve with a large enough effect; inconclusive means small, poorly fitted or top-dose-only effect, or another doubt; inactive means no such curve, though single readings can be large or run the other way;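 further: the enzyme is Sfp with the accession as filed and its product quenches rhodamine fluorescence; potency means the concentration at half of the fitted maximal effect; 0% = enzyme reaction without inhibitor and -100% = no enzyme wells; top concentration of the series not given in the record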
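Compounds were incubated with enzyme (final 15 nM) for 15 min at room temperature before substrate addition started the reaction. Fluorescence at 525 nm excitation, 598 nm emission was recorded immediately and after 30 minutes.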
An asterisk follows results filed as active; ? = inconclusive; . = not tested or not shown; [ ] = remark or other dose.

SMILES	TRPML1 ag	ClpP mod	TRPML1 blocker	PINK1 expr mod	Menin-MLL FL inh	TRPV1 potentiator	Sfp inh
Cc1cccc(NC(=O)NNC(=O)c2cc3occc3[nH]2)c1C	1.0	-2.5%	-3.4	4.1%	.	12.5	-0.8%
Cc1ccc(S(=O)(=O)CCC(=O)OCc2nnc(-c3ccc([N+](=O)[O-])cc3)o2)cc1	2.2	-15.7%	-23.9	-5.8%	.	.	.
Cc1cc(Cl)ccc1NC(=S)N1CCN(C(=O)C2CCCO2)CC1 (stereo not given)	-0.4	1.2%	11.5	0.8%	0.6	-8.2	9.5%
Cc1cc(=O)[nH]c2ccc(S(=O)(=O)NC3CCCCC3)cc12	-0.2	-6.2%	-26.3	4.1%	.	-4.7	-11.2%
C=CCNc1nc(N2CCOCC2)c(C#N)c2c1CN(C)CC2	28.8	?	7.8	-0.9%	-0.3	-5.2	18.2%
CCOc1ccc(C2c3[nH]c4ccccc4c3CCN2C(=O)CSCc2ccc(F)cc2)cc1 (stereo not given)	-0.5	-2.6%	10.4	2.3%	.	.	.
O=C(CN1CCCCCC1)Nc1ccc(F)c(F)c1	2.0	-6.5%	-5.6	0.3%	3.1	8.0	-6.8%
CC(/C=C/c1ccccc1)=N\NC(=O)c1cc(C)[nH]n1	1.3	-0.1%	-16.6	0.6%	-2.1	3.7	10.5%
C[C@H]1CN=C(Nc2ccccc2)N1CCc1ccccc1	0.3	0.9%	13.0	-0.3%	.	7.2	.
O=C(NNC(=O)c1ccc2c(=O)n3c(nc2c1)CCC3)c1ccc(F)cc1	0.5	-2.5%	-11.3	-0.7%	.	2.4	.
CCOc1ncccc1C(=O)OC(C)C(=O)Nc1ccc(N2CCOCC2)cc1 (stereo not given)	0.0	-1.4%	8.6	0.8%	.	.	.
Cn1ccc2c(-c3ccc(CO)cc3)cc3c(c21)C1CCC3O1 (stereo not given)	-0.9	5.0%	.	1.6%	.	.	.
COC(=O)COc1ccc(S(=O)(=O)N2CCCCC2)cc1[N+](=O)[O-]	-0.4	.	-7.2	0.8%	-3.8	16.3	7.9%
O=C(c1ccncc1)N1CCC2(CCCN(Cc3nccs3)C2)CC1	.	.	.	0.3%	-6.3	.	2.1%
O=C(CCN1CCOCC1)NCc1ccccc1	0.7	0.8%	-2.7	-1.1%	2.3	-26.8	?
COc1ccccc1CNC(=O)Cn1c(-c2ccc(F)cc2)cc(C(C)=O)c1C	1.3	0.4%	0.3	-1.8%	.	.	.
Nc1c(-c2ccccc2)cnc2ncnn12	-1.0	2.2%	-1.8	-0.9%	-2.3	-0.8	12.7%
CN(C)CCN(C)Cc1ccccc1Sc1cccc2ccccc12	0.0	-0.7%	-6.0	-2.9%	7.1	-0.5	-29.8%
CCc1nnc(NS(=O)(=O)c2ccc(N/C=C\C(=O)c3ccc(F)cc3)cc2)s1	1.7	-12.3%	11.5	-0.5%	7.3	-14.7	11.7%
COc1ccc(Nc2oc(-c3ccc(F)cc3)nc2C#N)cc1	-0.2	.	-5.2	2.7%	3.6	-11.8	13.5%
Cc1ccc(N2C(=O)C(CC(=O)Nc3ccc(F)cc3)N(CCC3=CCCCC3)C2=O)cc1 (stereo not given)	1.3	-1.9%	10.7	1.3%	.	.	.
CC(=O)COc1cccc2ccc(/C=C/c3ccc(Br)s3)nc12	.	?	.	2.5%	6.4	-14.8	-16.4%
COc1ccc(CCC(=O)Nc2ccc(OC)c(S(=O)(=O)N3CCCCC3)c2)cc1	-1.0	-2.2%	-9.1	4.4%	.	-1.3	.
O=C(c1cccc(S(=O)(=O)NCc2ccccc2)c1)N1CCN(c2ccc(F)cc2)CC1	0.5	-0.2%	0.6	-0.1%	.	-3.6	.
Cc1cc(C(=O)OCC(=O)NC2CCS(=O)(=O)C2)c2ccccc2n1 (stereo not given)	-0.2	1.6%	8.8	1.4%	-7.9	3.6	20.8%
COc1ccc(Br)cc1/C=C/C(=O)NC(=S)Nc1ccc(CN2CCOCC2)cc1	3.4	1.4%	-9.9	2.6%	-1.7	5.7	8.3%
COc1cccc(Oc2ccc(OC)cc2C(=O)O)c1	-1.0	.	-16.7	1.6%	4.2	8.3	1.6%
CCOc1ccc(C(C)NC(=O)Cc2ccccc2F)cc1OCC (stereo not given)	-0.3	.	-2.0	2.0%	-0.2	-15.1	24.8%
COc1ccc(C2=NC(=O)NC2c2ccc(OC)cc2)cc1 (stereo not given)	-0.2	4.2%	2.4	0.3%	-2.2	0.6	-2.0%
Cc1ccc(OCCNCC(O)COc2ccccc2)cc1 (stereo not given)	0.5	1.0%	-0.5	4.6%	-6.7	-7.6	-20.9%
CN1CCN(Cc2c(O)ccc3cc(Br)ccc23)CC1	-0.4	.	-0.3	-0.3%	1.2	4.0	-7.0%
CCSc1ccccc1C(=O)Nc1cc(OC)c(OC)c(OC)c1	0.3	.	19.2	-0.7%	-7.0	4.1	15.8µM*
Cc1occc1C(=O)N/N=C/c1ccc2c(c1)OCO2	-1.0	.	4.1	0.2%	1.4	-1.1	21.4%
COC(=O)C1(NC(=O)CNC(=O)OCc2ccccc2)CCCC1	-0.2	-0.4%	-5.6	0.3%	.	.	.
CC(C)CC(=O)Nc1cc2c3c(c1)C(C)C(=O)N3CCC2 (stereo not given)	-0.3	-2.3%	2.2	0.1%	-5.4	-6.6	13.6%
CCOc1cc(-c2nc3cc(C)ccn3c2NCC2CCCO2)ccc1O (stereo not given)	0.2	28.2µM*	12.1	0.5%[38.3 µM]	2.6	-6.9	1.9%
O=[N+]([O-])c1ccccc1Sc1nccn1Cc1ccccc1	2.7	1.0%	14.9	5.2%	1.5	?	11.2%
COc1ccc(OC)c2c(C)cc(NCCN3CCOCC3)nc12	-0.4	?	12.5	.	-1.9	-15.5	2.6%
CCN(C(=O)Cn1nc(C)c([N+](=O)[O-])c1C)c1c(N)n(Cc2ccccc2)c(=O)[nH]c1=O	-0.7	-3.6%	3.9	3.7%	.	3.2	.
Cc1ccc(NC(=O)C2CCC(CNS(=O)(=O)c3ccc4c(c3)CCCC(=O)N4)CC2)cc1F (stereo not given)	-1.3	-1.0%	1.4	3.2%	.	.	.
CCN1C(=O)c2cccc3c(NC(=O)c4ccc(S(=O)(=O)N5CCOCC5)cc4)ccc1c23	0.1	0.5%	7.4	5.2%	-1.3	6.9	6.0%
COC(=O)c1cc2c(s1)-c1cc(F)ccc1OC2	0.4	1.2%	-7.5	3.9%	1.6	-3.5	18.8%
COC(OC)C1(C)C(C#N)=C(N)Oc2c1c(=O)oc1ccccc21 (stereo not given)	0.8	-0.3%	33.6	-0.8%	2.2	-19.0	8.1%
CCC(C)c1ccc2oc(-c3ccc(NC(=O)c4ncn[nH]4)cc3)nc2c1 (stereo not given)	-0.3	10µM*	-9.3	2.6%[38.3 µM]	-3.3	2.0	-4.8%
COc1ccccc1CNC(=O)Nc1nc(C(N)C(C)C)cs1 (stereo not given)	-0.3	2.0%	.	3.9%	.	.	.
CCOC(=O)c1sc(NC(=O)CNCc2ccccn2)c(C(=O)OCC)c1C	-0.6	.	-12.8	1.1%	-0.8	1.7	9.3%
COc1cc(C)c(Cl)cc1S(=O)(=O)NC1CC(C)(C)NC(C)(C)C1	.	.	.	.	1.3	-1.0	-20.1%
Cc1cccc(C)c1N(CC(=O)NCc1ccccc1)C(=O)c1csnn1	0.2	.	-13.1	1.7%	-1.1	-19.4	12.3%
O=C(NCc1ccc(Cl)cc1)c1ccc(N2CCCC2=O)cc1	-0.7	.	15.1	6.3%	-2.5	-13.0	10.0%
Cc1ccc(C2C=C(c3ccccc3)Nc3ncnn32)cc1 (stereo not given)	3.4	4.6%	2.9	-0.7%	.	.	.
Cc1nnc(N(C)C(=O)Cc2ccc3c(c2)OCO3)s1	0.7	-0.8%	0.2	-1.6%	-0.5	-4.1	8.7%
Cc1ccc(S(=O)(=O)Nc2ccc(NC(=O)/C=C/C(=O)O)cc2)cc1	0.8	.	43.5	-1.2%	3.0	-19.7	5.0%
Cn1c(=O)c2c(nc(CN3CCN(C(=O)c4ccco4)CC3)n2Cc2ccc(Cl)cc2)n(C)c1=O	0.3	-1.7%	26.6	.	2.2	12.1	1.9%
O=S(=O)(O)c1cc(O)c2ccc(Nc3ccccc3)cc2c1	1.1	.	3.6	-1.2%	.	.	.
COc1cc(CNCc2ccccc2)ccc1OCC(O)c1ccccc1 (stereo not given)	0.9	0.2%	21.6	2.5%	-7.7	26.9	-13.2%
COCCNC(=O)C(c1cccs1)N(C(=O)Cn1nnc2ccccc21)c1ccccc1 (stereo not given)	-0.8	2.2%	8.1	-0.1%	5.6	-6.1	-25.2%
O=C(Nc1ccc(C(F)(F)F)cc1)C1CCN(S(=O)(=O)c2ccc(N3CCCC3=O)cc2)CC1	1.7	-0.4%	-12.7	8.6%	1.1	4.9	-19.5%
NC(=O)C1CCN(c2ncccc2[N+](=O)[O-])CC1	1.0	0.6%	6.4	0.9%	-1.0	-0.3	17.5%
O=C(Cn1c(=S)[nH]c2ccccc2c1=O)N1CCc2ccccc2C1	0.3	-1.6%	-7.7	6.0%	1.6	25.5	12.8%
CN(C)c1nc(N)nc(CSc2ncc(Cl)cc2Cl)n1	1.0	-0.5%	7.7	5.6%[38.3 µM]	2.5	10.2	-10.4%

Following part:
SMILES	TRPML1 ag	ClpP mod	TRPML1 blocker	PINK1 expr mod	Menin-MLL FL inh	TRPV1 potentiator	Sfp inh
O=C(CN1C(=O)NC2(CCCc3ccccc32)C1=O)c1ccc(F)c(F)c1 (stereo not given)	0.6	.	-8.7	1.3%	.	.	.
COc1ccc(C(=O)N[C@H](C(=O)OCc2nc3ccsc3c(=O)[nH]2)C(C)C)cc1	1.7	-9.4%	6.6	0.3%	.	1.6	.
CCSc1nsc(NC(=O)Nc2cccc(C(C)=O)c2)n1	1.3	.	3.5	?	0.9	9.3	17.7%
CCN(CC)c1ccc(/C=N/NC(=O)c2cccc(S(=O)(=O)Nc3ccccc3OC)c2)c(O)c1	4.0	1.2%	11.1	-2.9%	?	4.5	20.1%
c1ccc2nc(-c3nc4ccccc4o3)ccc2c1	0.7	8.91µM*	-1.9	4.5%[38.3 µM]	?	6.4	?
